TDP1 block: TDP1 (human) enzyme inhibition | Q9NUW8 | recombinant TDP1, AlphaScreen DNA substrate cleavage | Potency, µM (highest dose often 130 µM), without a hit: at the top dose activity change, negative = inhibition, usual class: inhibitors | 350,000 tested, 0.28% active; note: nearly all actives have a fitted effect of over 40% in size
Target sequence (Q9NUW8 whole entry, looked up): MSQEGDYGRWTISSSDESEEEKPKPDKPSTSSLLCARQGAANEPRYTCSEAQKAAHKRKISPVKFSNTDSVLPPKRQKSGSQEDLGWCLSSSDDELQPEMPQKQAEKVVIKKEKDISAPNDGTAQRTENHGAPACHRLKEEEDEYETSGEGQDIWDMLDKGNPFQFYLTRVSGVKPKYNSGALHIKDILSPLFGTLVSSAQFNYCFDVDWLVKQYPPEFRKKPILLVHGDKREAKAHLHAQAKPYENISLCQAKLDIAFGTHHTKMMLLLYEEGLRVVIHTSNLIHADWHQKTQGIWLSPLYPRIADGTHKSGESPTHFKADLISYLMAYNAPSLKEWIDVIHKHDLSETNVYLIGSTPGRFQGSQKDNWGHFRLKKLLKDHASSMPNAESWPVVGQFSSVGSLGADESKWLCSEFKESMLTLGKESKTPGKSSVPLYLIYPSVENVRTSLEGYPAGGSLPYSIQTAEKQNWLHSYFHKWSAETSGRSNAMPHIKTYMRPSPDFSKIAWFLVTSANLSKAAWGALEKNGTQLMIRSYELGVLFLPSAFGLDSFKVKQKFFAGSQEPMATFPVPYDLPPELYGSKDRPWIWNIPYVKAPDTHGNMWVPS
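E. coli-derived human Tdp1, 1 nM final. Cpd preinc 15 min RT; substrate 15 nM final, 5 min RT; AS bead mix 10 ug/ml final, 10 min RT. Signal loss = tyrosine-FITC cleavage. No-enzyme wells = max signal.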
TDP1 cell noCPT: qHTS for Inhibitors of human tyrosyl-DNA phosphodiesterase 1 (TDP1): qHTS in cells in absence of CPT. 420,000 tested, 15% active. Potency, µM (titrated, usually from 46.2 µM), for the others: at the highest dose activity change, negative = growth inhibition, actives largely listed as inhibitors. DT40 Tdp1-/- hTDP1 cells, no CPT, ATP luminescence, 48 h; note: nearly all actives have a fitted effect of over 55% in size
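Luminescent ATP content (CellTiter-Glo) served as the growth readout. Knockout chicken DT40 cells expressing human TDP1 were exposed to compounds without camptothecin for a minimum 48 hr at 37 °C.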
* = called active by the depositor; u = inconclusive; x = not tested or not shown; & = joins results of further samples; [ ] = another dose, or the depositor's remark. Calls come from the whole dose curve; as a rule, active = well fitted curve in the direction sought with a large enough effect; inconclusive = small, poorly fitted or top-dose-only effect, or another doubt; inactive = no such curve, though single readings can be large; an effect the other way counts as inactive or inconclusive. % is set by controls: 0 for no effect and ±100 for the full control effect; potency is the fitted concentration of half-maximal effect. This is a subset; most or all hits stand in other tables.

structure,TDP1 block,TDP1 cell noCPT
O=C(CN1C(=O)CCC1=O)Nc1nc(-c2nc3ccccc3s2)cs1,10%,-14%
CC(C)C(NC(=O)C1CCC(C(C)(C)C)CC1)C(=O)NCc1cccnc1 (stereo unspecified),0%,u
CCNc1sc(C(=O)c2cccs2)c(N)c1C#N,2%,-6%
O=C(c1ccc(-c2cccc(C(F)(F)F)c2)o1)N1CCOCC1,-2%,u
CCC(=O)Nc1cccc(C(=O)OCC(=O)c2ccccc2Cl)c1,3%,-10%
CCCCOc1ccc(N(CC(=O)NC2CCCC2)C(=O)CCC(=O)Nc2ccccn2)cc1,0%,u
O=C(O)C1CSC(c2ccc(O)c([N+](=O)[O-])c2)N1 (stereo unspecified),0%,1%
O=C(CNC(=O)c1ccccc1)Oc1ccc([N+](=O)[O-])cc1,-2%,u
Cc1cccc(C(=O)OCC(=O)NC(=O)Cc2ccccc2)c1O,4%,3%
Cc1cccc(C)c1NC(=O)c1ccccc1C(=O)O,2%&6%,u
O=C(C1CCN(Cc2cn[nH]c2-c2ccc(F)cc2F)CC1)N1CCOCC1,4%,3%
CCOC(=O)c1cc(CC)sc1NC(=O)CC1Sc2ccc(C(F)(F)F)cc2NC1=O (stereo unspecified),-6%,u
CNc1c([N+](=O)[O-])cnn1-c1cccc(Cl)n1,5%,0%
Cn1nc(OC(=O)Nc2ccc(F)cc2)cc1C(F)(F)F,-7%,-20%
Cc1cnc(NC(=O)CN2CCN(c3ccccc3F)CC2)s1,7%,-17%
CCOC(=O)Cn1c2ccc(C)cc2c2nc(C)sc21,0%,-5%
COc1ccccc1NC(=O)C(=O)NCc1ccccc1Cl,3%,-13%
CCOC(=O)CN1C(=O)N[C@@H](c2cccc(C(F)(F)F)c2)[C@@H](C(=O)OC)[C@H]1C,9%[21 µM],-10%
Cc1nnc(SCC(=O)Nc2ccc3c(c2)COC3=O)n1-c1ccccc1,4%,-29%
c1ccc(-c2ccc(C3CCCN3)cc2)cc1 (stereo unspecified),1%,-4%
COc1ccccc1NC(=O)CCc1nnc2ccc(N3CCC4(CC3)OCCO4)nn12,-3%,-3%
CCCOc1ccc(CCN2CCC(=O)NC2=O)cc1C,2%,u
O=C1CCCC(O)=C1C1C2=C(CCCC2=O)Oc2ccccc21 (stereo unspecified),-8%,-21%
O=C(CCS(=O)(=O)c1ccc(Br)cc1)N1CCN(c2ccccc2Cl)CC1,0%,u
CCOc1ccc(-c2nnc3sc(COc4ccccc4)nn23)cc1,1%,u
O=C(NCCC1CCCCN1S(=O)(=O)c1ccccc1)C(=O)NCc1ccncc1 (stereo unspecified),0%,u
CO/N=C(\C(=O)N[C@@H]1C(=O)N2C(C(=O)O)=C(COC(N)=O)CS[C@@H]12)c1ccco1,-13%[56.1 µM],x
CC(C)(C)NC(=O)C1Cc2ccccc2CN1S(=O)(=O)c1ccc(F)cc1 (stereo unspecified),4%,-25%
CCCc1cc(=O)[nH]c(N2CCN(Cc3ccc4c(c3)OCO4)CC2)n1,x,-3%
O=C(Cc1noc2ccccc12)NNC(=S)Nc1ccccc1,5%,3%
CN(C)c1ccc(S(=O)(=O)NCC(=O)OCC(=O)Nc2cccc(Cl)c2)cc1[N+](=O)[O-],7%,2%
COc1ccc2c(c1)C(=O)N(c1ccccc1OC)C(=O)C2,0%,-24%
O=C(Nc1cccc([N+](=O)[O-])c1)c1ccccc1,5%,-1%
CCCNC(=O)CN(C)S(=O)(=O)c1ccc(F)cc1,8%,-1%
CN(C)CCCOC(=O)Cc1ccc(Cl)cc1,3%,-8%
Cc1ccc(CCN2CC(C(=O)NCCCN3CCCCCC3)CC2=O)cc1 (stereo unspecified),6%,-14%
CC(C)[C@H](NC(=O)C1CCN(C(=O)[C@H](Cc2ccccc2)NC(=O)OC(C)(C)C)CC1)C(=O)O,x,4%
Cc1ccc2nc3sc(C(=O)Nc4ccc(N5CCOCC5)cc4)c(N)c3cc2c1,0%,x
NS(=O)(=O)c1ccc(CCNC(=O)Nc2ccc(Cl)cc2)cc1,5%,-22%
CC(C)c1ccc(CNCc2ccccc2)cc1,1%,-27%
Cc1ccc(NC(=O)c2nc(C)n(-c3ccc([N+](=O)[O-])cc3)n2)cc1,4%,-26%
COc1ccc(O)c(C=Nc2cc(NC(C)=O)c(Cl)cc2Cl)c1,-1%,-13%
Cc1nn2c(C(F)(F)F)cc(-c3ccc(Cl)cc3)nc2c1C(=O)N1CCOCC1,4%,-16%
CCOc1ccc(OCc2cccc(C(=O)N/N=C/c3cccnc3)c2)cc1,5%,u
COCCCN1C(=O)CS/C1=N\S(=O)(=O)c1ccccc1,2%,8%
Cc1ccc(NC(=S)NN(C)c2nc(C)cnc2C)cc1,8%,-4%
COC(=O)c1sccc1-n1cccc1C(=O)C(=O)N1CCCC1,-2%,-16%
COc1ccccc1NC(=S)N1CCn2cccc2C1c1cccnc1 (stereo unspecified),2%,-14%
O=C(Nc1ccc2c(c1)OCO2)c1ccc(Br)o1,3%,-19%
COc1ccc(C(=O)CSc2nc3ncccc3[nH]2)cc1OC,-1%,u
CCc1ccc(NC(=O)CSc2nnc(-c3cnccn3)n2Cc2ccco2)cc1,0%,-22%
CC(=O)Nc1ccc(NC(=O)CSC2=NS(=O)(=O)c3cc(F)ccc3N2)cc1,-2%,-12%
CP(=O)(Nc1cc(Cl)ccc1Cl)c1nc2c(s1)CCCC2 (stereo unspecified),-1%,u
O=C(Nc1ccc(Cl)cc1)c1cccc(OC(=S)N2CCOCC2)c1,0%,u
COc1ccc(/C=C(\NC(=O)c2ccccc2)C(=O)OC[C@@H]2CCC[N+]3(C)CCCCC23)cc1OC (stereo partly specified),-2%,-2%
O=C(NC(=S)NC1CCS(=O)(=O)C1)c1cccs1 (stereo unspecified),0%,-31%

Another view of two compounds above:
Every second line gives: TDP1 block, TDP1 cell noCPT
CCCCOc1ccc(N(CC(=O)NC2CCCC2)C(=O)CCC(=O)Nc2ccccn2)cc1
→ 0%, u
Cc1ccc(NC(=S)NN(C)c2nc(C)cnc2C)cc1
→ 8%, -4%

(more compounds)
structure,TDP1 block,TDP1 cell noCPT
Cc1oc(-c2ccccc2F)nc1CS(=O)CC(=O)NCc1cccs1 (stereo unspecified),3%,-10%
COc1cc(Cl)ccc1OCc1cc(C(=O)N(C)C2CCOC2)no1 (stereo unspecified),3%,13%
COc1cccc(C2c3[nH]c4ccccc4c3C[C@H]3C(=O)N(C)CC(=O)N23)c1 (stereo partly specified),x,4%
CC(C)OCCCNC(=S)NNC(=O)C(c1ccccc1)c1ccccc1,6%,u
COc1cc(CCC(=O)OCC(=O)Nc2ccc3c(c2)OCO3)cc(OC)c1OC,10%,15%
COC(=O)c1cc(N2C(=O)C3C4C=CC(CC4)C3C2=O)ccc1Cl (stereo unspecified),x,3%
Cc1ccc(N(CC(=O)NC(C)C)C(=O)CCC(=O)Nc2ccccn2)cc1,0%,-2%
CCCc1[nH]nc2c1C(c1ccc(OC)c(Cn3nc(C)c(Br)c3C)c1)C(C#N)=C(N)O2 (stereo unspecified),10%,u
CC(=O)Nc1cc(C(=O)NCc2ccco2)ccc1Sc1ccc(Cl)cc1,4%,u
CC(C)CNC(=O)CC(NCC(C)C)C(=O)O (stereo unspecified),0%,x
CCCCn1c(N)c(N(CC(C)C)C(=O)C2CC(=O)N(c3ccc(C)cc3)C2)c(=O)[nH]c1=O (stereo unspecified),6%,-8%
CCOc1ccc2oc(C(=O)OC(C(=O)NC(N)=O)C(C)C)c(C)c2c1 (stereo unspecified),-10%,-18%
N#Cc1ccccc1OCC(=O)N1CCN(C(=O)c2ccco2)CC1,1%,10%
CC(=O)c1ccc(NC(=O)c2noc(C(C)C)c2[N+](=O)[O-])cc1,-1%,2%
CCN1CCN(c2ccc(NC(=O)c3ccc(C#N)cc3F)cc2Cl)CC1,8%,u
CCOc1ccc(NC(=O)n2ncc3c(C)cccc32)cc1,x,0%
CC(=O)N1CCN(Cc2nc3cc(NC(=O)c4cccs4)ccc3n2C)CC1,-6%[0.0935 µM],-8%
CSC1=NCCN1CCOc1ccccc1,4%,-14%
CC1CCCN(c2sc(S(C)(=O)=O)nc2S(=O)(=O)c2ccc(Cl)cc2)C1 (stereo unspecified),0%,u
CCN1C(=O)C(CC(=O)N2CCN(C(c3ccccc3)c3ccccc3)CC2)N(CC)C1=O (stereo unspecified),0%,-20%
CC(=O)OC(C(=O)NC1CCCCC1)c1ccccc1 (stereo unspecified),6%,-1%
CCC(=O)NNc1nc2c(Cl)cccc2s1,4%,5%
Cc1nc(NC(=S)NC(=O)c2ccccc2)sc1C(=O)N(C)C,0%,-9%
COC(=O)c1ccc(NC(=O)CN2C(=O)c3ccccc3S2(=O)=O)cc1,x,-6%
O=C(CCC(=O)OCCCC(F)(F)C(F)(F)F)Nc1ccccc1,2%,3%
COc1ccc(C(=O)OCC(=O)NCC2CCCO2)cc1[N+](=O)[O-] (stereo unspecified),3%,12%
COc1ccc(Br)cc1/C=C/C(=O)NCC(=O)O,2%,3%
CC(C)OC(=O)CSc1nnc(-c2ccncc2)n1N,2%,-7%
CCCc1ccc(OCC(=O)O)cc1,-1%,2%
COc1cc(OC)cc(C(=O)NC(C(=O)Nc2ccc3c(c2)OCO3)C(C)C)c1 (stereo unspecified),3%,u
Cc1ccccc1OCCC(=O)OCC(=O)NC1CC1,-2%[0.505 µM],0%
CCCC(=O)C1=C(O)C(C(=O)OC)C(C)(C)CC1=Nc1cccc([N+](=O)[O-])c1 (stereo unspecified),x,-27%

Looked up by compound from the entries so far (7):
structure,TDP1 block,TDP1 cell noCPT
CCCC(=O)C1=C(O)C(C(=O)OC)C(C)(C)CC1=Nc1cccc([N+](=O)[O-])c1 (stereo unspecified),x,-27%
COc1cc(OC)cc(C(=O)NC(C(=O)Nc2ccc3c(c2)OCO3)C(C)C)c1 (stereo unspecified),3%,u
CC(C)OC(=O)CSc1nnc(-c2ccncc2)n1N,2%,-7%
COc1ccc(Br)cc1/C=C/C(=O)NCC(=O)O,2%,3%
O=C(CCC(=O)OCCCC(F)(F)C(F)(F)F)Nc1ccccc1,2%,3%
COc1ccc(C(=O)OCC(=O)NCC2CCCO2)cc1[N+](=O)[O-] (stereo unspecified),3%,12%
Cc1ccccc1OCCC(=O)OCC(=O)NC1CC1,-2%[0.505 µM],0%

More entries follow:
structure,TDP1 block,TDP1 cell noCPT
Cc1cc(C)c(N(C(=O)c2csnn2)C(C(=O)NC2CCCC2)c2ccncc2)c(C)c1 (stereo unspecified),x,-4%
O=C(Cc1c[nH]c2ccccc12)NCc1ccco1,0%,0%
CCOC(=O)C1CCN(C2CCN(C(=O)c3oc4c(F)cccc4c3C)CC2)CC1,4%,u
COc1cc(N)n(S(=O)(=O)c2ccc(C)cc2)n1,4%,9%
CCOC(=O)CCn1nc(-c2ccccc2)cc1N,-2%,-3%
COCCCNC(=O)CN(c1cc([N+](=O)[O-])ccc1OC)S(C)(=O)=O,0%,8%
CCOC(=O)c1sc(=NC(=O)/C=C/c2ccccc2)n(C)c1C,2%,12%
O=C(O)C1(c2ccccc2)CCN(S(=O)(=O)c2cccs2)CC1,5%,-13%
CCOC(=O)N1CCC(NC(=O)Cn2c3ccccc3c3cn[nH]c(=O)c32)CC1,3%,x
CC1CCN(C(=O)C(=O)Nc2sc3c(c2C(=O)O)CC(C)(C)OC3)CC1,4%,11%
O=C(C1CC1)N1CCN=C1SCc1cccc(F)c1,5%,0%
COc1ccccc1C(C(=O)NC1CCCC1)N(C(=O)c1csnn1)C1CC1 (stereo unspecified),-13%[0.0935 µM],1%
COC(=O)c1ccc(C(=O)OC)c(NC(=S)N2CCN(c3ccccc3F)CC2)c1,5%,-23%
Cc1cc(S(=O)(=O)NCc2ccccc2)ccc1OCC(=O)N1CCOCC1,6%,-30%
Cc1cccc(NC(=O)c2cc(NC(=O)c3ccccc3)ccc2N2CCCCC2)c1,-5%,-2%
CCCS(=O)(=O)N1CCCC(C(=O)NCCCN2CCN(c3cccc(Cl)c3)CC2)C1 (stereo unspecified),0%,u
COc1cccc(CNS(=O)(=O)c2ccc3c(c2)N(C)CCO3)c1,4%,-16%
COc1ccc([N+](=O)[O-])cc1NC(=O)C(C)OC(=O)c1ccccn1 (stereo unspecified),8%,-1%
CCNS(=O)(=O)c1cc(Br)ccc1OC,2%,u
